Screens deposited in PubChem BioAssay by several laboratories.
Diaphorase inh: diaphorase inhibition or chemical oxidation counter-screen. diaphorase resazurin-to-resorufin fluorescence, NADH, 16 min; bacterial (C. kluyveri) enzyme, not human. 0.69% of 190,000 active. inhibition, % at 20 µM;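 active = primary screen inhibition at 20 µM above a set limit, cut at about 50% in these data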;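 also: plate controls were DMSO with full reaction for no effect and wells lacking NADH for full effect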
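material = Clostridium kluyveri diaphorase enzyme | amount = 0.14 U/mL diaphorase, enzyme working solution | schedule = incubation 16 min, room temperature | detection = fluorescence of resorufin formed from resazurin, Ex 544/Em 590 nm | benchmarks = positive control minus NADH, DMSO neutral control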
ROMK mod: human ROMK K+ channel modulation, primary screen; P48048; Tet-inducible ROMK, thallium flux fluorescence; actives lie on both sides; B-score at 10 µM; 2% of 130,000 active; AID 1918;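 active = signal ratio slope over the read window, or its plate-corrected B-score, at least 3 SD from the plate mean, either direction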;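 also: B-score of the F/F0 ratio slope over 7 to 12 s after thallium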
Target sequence (P48048 whole entry, looked up): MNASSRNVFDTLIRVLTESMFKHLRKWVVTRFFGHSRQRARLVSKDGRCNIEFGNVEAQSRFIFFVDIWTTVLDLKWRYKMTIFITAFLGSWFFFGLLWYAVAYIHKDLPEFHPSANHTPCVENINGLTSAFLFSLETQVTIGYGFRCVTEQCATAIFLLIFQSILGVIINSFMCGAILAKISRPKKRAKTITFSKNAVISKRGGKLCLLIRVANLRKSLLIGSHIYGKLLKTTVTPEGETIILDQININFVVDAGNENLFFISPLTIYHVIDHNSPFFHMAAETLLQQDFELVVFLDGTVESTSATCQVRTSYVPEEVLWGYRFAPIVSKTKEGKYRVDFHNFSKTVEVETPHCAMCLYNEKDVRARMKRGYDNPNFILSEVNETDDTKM
G6PDH counter: counter-screen for G6PDH assay hits: L. mesenteroides G6PDH inhibition. Purified L. mesenteroides G6PDH, diaphorase/resazurin coupled fluorescence, 45 min. inhibition, % at 5 µM. 0.12% of 200,000 active; in the data active = inhibition above about 50%
SRC2 TRFRET art: flags TR-FRET format artefacts in PPARgamma SRC-2 recruitment agonist screen; AID 1049; 0.4% of 200,000 active; TR-FRET ratio at 8 µM; TR-FRET artefact counter-screen; hits give high values; in the data active = TR-FRET ratio above about 2000; also: inactives centre near 1500
PPARg SRC3 recr: PPARgamma-driven SRC-3 recruitment agonism; P37231; biochemical PPARgamma/SRC-3 coactivator recruitment assay; activation, % at 8 µM; 0.26% of 200,000 active; in the data active = activation above about 23%;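 also: 0% = DMSO and 100% = reference agonist; some compounds past the cut are filed as inactive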
S1P3 antagonist: S1P3 (human) receptor antagonism; 0.27% of 170,000 active; inhibition, % at 4.98 µM; CHO S1P3 NFAT-BLA reporter, FRET fluorescence, antagonist mode;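 active = inhibition above the plate cutoff, the mean inhibition of test wells on that plate plus 3 SD, cut at about 28% in these data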;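 also: cells challenged with S1P at its EC80 of 0.8 µM; blue over green emission ratio from cleaved BLA substrate after 4 h stimulation; 0% = S1P-stimulated wells and 100% = unstimulated DMSO-only wells; some compounds past the cut are filed as inactive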
PPARg SRC1 recr: promotes SRC-1 coactivator recruitment by human PPARgamma; PPARgamma-SRC-1 coactivator recruitment biochemical assay; activation, % at 8 µM; 0.41% of 200,000 active; P37231; AID 631; in the data active = activation above about 19%;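 also: 0% = DMSO and 100% = reference agonist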
PPARg SRC2 recr: agonists of SRC-2 recruitment by human PPARgamma | 0.34% of 200,000 active | P37231 | PPARgamma LBD-SRC-2 recruitment, biochemical | AID 1032 | activation, % at 8 µM; in the data active = activation above about 22%;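 also: 0% = vehicle and 100% = reference agonist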
Numbers without * were called inactive; / = no result given. Only part of the results is shown (hit frequency here may not be typical).

1	O=C(CCN1CCOCC1)Nc1ccccc1
2	COc1ccc(C(=O)O/N=C/c2ccc(S(=O)c3ccc(Cl)cc3)nc2)cc1 (stereo unspecified)
3	COc1ccc(Cc2nc3ccc(S(=O)(=O)N4CCOCC4)cc3[nH]2)cc1OC
4	O=C(NCc1ccco1)C(c1ccccc1)N(C(=O)Cc1cccs1)c1ccccc1F (stereo unspecified)
5	CC1(C)Oc2ccc(NC(=O)c3ccco3)cc2O1
6	CCOc1ccccc1NC(=O)CCn1c(=O)oc2ccccc21
7	O=C(c1ccc(COc2ccccc2Br)o1)N1CCN(c2ccccn2)CC1
8	CC(=O)C1=C(C)OC(N)=C(C#N)C1c1cc2cccc(C)c2nc1Cl (stereo unspecified)
assay / compound	1	2	3	4	5	6	7	8
Diaphorase inh	6.0	-2.1	11.2	12.1	9.4	2.9	11.1	39.4
ROMK mod	/	/	/	/	/	/	/	-0.755
G6PDH counter	9.0	6.7	5.6	1.7	-1.2	8.6	5.1	17.9
SRC2 TRFRET art	1489	1432	1354	1572	1528	1483	1618	1419
PPARg SRC3 recr	4.9	-3.1	1.0	2.1	0.8	4.6	5.0	8.8
S1P3 antagonist	/	/	/	/	/	-0.4	/	/
PPARg SRC1 recr	10.1	-0.5	-4.6	-1.1	-3.5	1.1	-0.1	5.6
PPARg SRC2 recr	-12.7	3.0	-1.8	1.5	1.0	0.2	8.6	-1.9

9	Cn1c(SCC(=O)NCc2ccc3c(c2)OCO3)nnc1-c1cc2ccccc2cc1O
10	CCC(C)n1c(NC(=O)c2ccccc2)c(C#N)c2nc3ccccc3nc21 (stereo unspecified)
11	Cc1ccc2occ(/C=C/C(=O)c3ccccc3O)c(=O)c2c1
12	COCCn1c(Cc2ccccc2)nnc1SCc1nc2ccccc2c(=O)[nH]1
13	COc1cc(-c2cc(-c3ccccc3)nc(SCC(=O)Nc3nccs3)c2C#N)cc(OC)c1OC
14	Cc1nn2c(N3CCN(C(=O)c4ccco4)CC3)cc(C(C)(C)C)nc2c1-c1ccc(Cl)cc1
15	Cc1ccc(C(=O)c2ccccc2C(=O)O)s1
16	Brc1ccc(N=C/C=C/C=C/Nc2ccc(Br)cc2)cc1
assay / compound	9	10	11	12	13	14	15	16
Diaphorase inh	10.8	11.4	11.0	7.9	12.1	9.4	-0.5	5.0
ROMK mod	/	/	/	/	0.275	/	/	/
G6PDH counter	5.5	47.4	2.9	3.7	6.8	6.4	2.2	8.1
SRC2 TRFRET art	1392	1605	1630	1513	1608	1428	1554	1485
PPARg SRC3 recr	-5.5	4.1	3.3	-11.1	5.3	-3.9	13.4	0.1
S1P3 antagonist	-8.1	/	/	/	/	/	/	/
PPARg SRC1 recr	6.1	15.0	-5.5	-5.2	8.6	0.6	10.5	2.8
PPARg SRC2 recr	-7.4	3.1	7.7	-2.0	7.8	-2.0	8.5	-2.8

Full records, quoted from the list. Values in the order: Diaphorase inh	ROMK mod	G6PDH counter	SRC2 TRFRET art	PPARg SRC3 recr	S1P3 antagonist	PPARg SRC1 recr	PPARg SRC2 recr
Results for COCCn1c(Cc2ccccc2)nnc1SCc1nc2ccccc2c(=O)[nH]1 = 7.9	/	3.7	1513	-11.1	/	-5.2	-2.0
Results for Brc1ccc(N=C/C=C/C=C/Nc2ccc(Br)cc2)cc1 = 5.0	/	8.1	1485	0.1	/	2.8	-2.8
Results for CCC(C)n1c(NC(=O)c2ccccc2)c(C#N)c2nc3ccccc3nc21 (stereo unspecified) = 11.4	/	47.4	1605	4.1	/	15.0	3.1
Results for Cc1ccc(C(=O)c2ccccc2C(=O)O)s1 = -0.5	/	2.2	1554	13.4	/	10.5	8.5

The main list resumes, starting 4 compounds before the break.
13	COc1cc(-c2cc(-c3ccccc3)nc(SCC(=O)Nc3nccs3)c2C#N)cc(OC)c1OC
14	Cc1nn2c(N3CCN(C(=O)c4ccco4)CC3)cc(C(C)(C)C)nc2c1-c1ccc(Cl)cc1
15	Cc1ccc(C(=O)c2ccccc2C(=O)O)s1
16	Brc1ccc(N=C/C=C/C=C/Nc2ccc(Br)cc2)cc1
17	COc1ccc(-c2cccc(C(=O)Nc3ccc(OC)c(OC)c3)c2)cc1
18	COCCCNC(=O)CCS(=O)(=O)Cc1ccc(C)cc1
19	Cc1cc2c(c(=O)o1)C1(C(=O)N(CC(=O)O)c3ccccc31)C(C#N)=C(N)O2 (stereo unspecified)
20	COc1cc(C(=O)NCC(c2cccnc2)N2CCN(C)CC2)cc(OC)c1OC (stereo unspecified)
21	Cc1cc2nc(C3CCN(Cc4nnnn4Cc4ccccc4)CC3)[nH]c2cc1C
22	COc1ccc(CCN2CC(O)=C(c3nc(C)cs3)C2=N)cc1OC
23	CCOC(=O)C1=C(NC(=S)NC(=O)c2ccccc2)c2ccccc2CC1(C)C
24	COc1ccc(N2CCc3c(C)nc4c(OC)cc(OC)cc4c32)c(OC)c1
assay / compound	13	14	15	16	17	18	19	20	21	22	23	24
Diaphorase inh	12.1	9.4	-0.5	5.0	2.8	11.5	23.8	6.4	18.5	2.7	19.7	20.4
ROMK mod	0.275	/	/	/	/	/	0.443	1.14	/	/	/	/
G6PDH counter	6.8	6.4	2.2	8.1	-5.3	6.2	6.3	7.9	6.1	8.3	13.2	3.6
SRC2 TRFRET art	1608	1428	1554	1485	1388	1451	1495	1504	1728	1567	1536	1531
PPARg SRC3 recr	5.3	-3.9	13.4	0.1	-0.2	-3.0	0.0	-3.3	6.4	7.4	4.2	14.7
S1P3 antagonist	/	/	/	/	/	-3.3	-14.9	-25.6	/	/	/	/
PPARg SRC1 recr	8.6	0.6	10.5	2.8	10.7	-0.7	-5.1	3.6	6.6	-1.9	5.1	3.1
PPARg SRC2 recr	7.8	-2.0	8.5	-2.8	2.9	1.8	2.3	4.0	11.4	-0.5	3.6	17.8

25	CC1CCCC(C)N1C(=O)Cn1cc(/C=C2/C(=O)Nc3ccccc32)c2ccccc21 (stereo unspecified)
26	COc1ccc(C(=S)N(C)C)cc1OC
27	O=C(Nc1cc(Sc2ccccn2)cc([N+](=O)[O-])c1)c1ccc(Cl)cc1
28	CN(C)c1ccc(/C=N/NC(=S)NCc2ccccc2)cc1
29	CCS(=O)(=O)NCC(c1cccnc1)N1CCN(c2ccccc2F)CC1 (stereo unspecified)
30	Brc1ccc(CSc2nccn2-c2ccccc2)cc1
31	CN(C)c1ccc(/C=c2\sc3nc(-c4ccccc4)nn3c2=O)cc1
32	Cc1ccc(/C=N\NC(=O)C2COc3cc4ccccc4cc3O2)o1 (stereo unspecified)
33	CCn1c(CNc2ccc(OC)cc2)nnc1SCC(=O)N1CCCc2ccccc21
assay / compound	25	26	27	28	29	30	31	32	33
Diaphorase inh	27.3	8.6	15.3	10.3	8.1	21.5	6.7	5.8	19.7
ROMK mod	-2.23	/	/	0.0071	0.619	/	0.733	/	/
G6PDH counter	1.6	2.8	10.9	12.1	2.2	5.6	3.0	6.5	7.6
SRC2 TRFRET art	1521	1740	1631	1606	1493	1472	1472	1497	1816
PPARg SRC3 recr	1.2	8.2	4.9	11.2	-11.1	-6.4	0.6	-1.3	3.2
S1P3 antagonist	/	-28.8	/	/	6.2	/	-25.1	/	7.0
PPARg SRC1 recr	0.5	1.8	0.2	8.5	5.0	-5.8	-3.2	-2.3	-0.5
PPARg SRC2 recr	-6.6	7.8	-4.3	9.7	0.8	-5.1	-2.5	-1.7	10.6
